AF4-AF9 inh = MLL-AF4/AF9 protein interaction inhibition; P42568; AlphaScreen, biotin-AF4 peptide binding to FLAG-AF9; inhibition, % at 10 µM; hit rate 0.47% among 350,000;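 active = every replicate reaching a set inhibition limit, whatever the replicate mean, cut at about 25% in these data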;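 also: 0% = plate neutral control median and 100% = total signal loss; the record names both 10 and 1 µM as test concentration; the first replicate is given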
Target sequence (P42568 whole entry, looked up): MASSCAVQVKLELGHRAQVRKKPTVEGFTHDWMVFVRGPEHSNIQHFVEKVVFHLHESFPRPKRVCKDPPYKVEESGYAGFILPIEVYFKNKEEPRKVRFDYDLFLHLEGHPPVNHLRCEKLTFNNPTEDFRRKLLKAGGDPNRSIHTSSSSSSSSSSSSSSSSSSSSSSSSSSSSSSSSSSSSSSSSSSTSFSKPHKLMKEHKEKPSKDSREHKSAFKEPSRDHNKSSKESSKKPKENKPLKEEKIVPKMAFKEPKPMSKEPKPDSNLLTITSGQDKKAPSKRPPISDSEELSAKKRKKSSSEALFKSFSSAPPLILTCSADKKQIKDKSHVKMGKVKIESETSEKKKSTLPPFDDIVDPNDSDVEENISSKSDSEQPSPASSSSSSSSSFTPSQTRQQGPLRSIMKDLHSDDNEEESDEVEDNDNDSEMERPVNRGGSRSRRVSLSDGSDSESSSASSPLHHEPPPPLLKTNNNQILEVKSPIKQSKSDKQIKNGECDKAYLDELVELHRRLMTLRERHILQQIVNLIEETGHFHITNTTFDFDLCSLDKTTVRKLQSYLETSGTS
rRNA inh HTS = inhibits bacterial ribosomal RNA function over humanized ribosomes; hit rate 1.6% among 350,000; E. coli WT GFP vs humanized-ribosome RFP mutants, fluorescence, 24 h; hits give low values; DMSO median 0, no signal -100; AID 720706; GFP signal change (wild-type ribosome), % (no concentration beside the values);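 active = significant combined selectivity score with lowered wild-type GFP, culture density cut under 30%, mutant RFP and density less affected; inactive = any of these conditions unmet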; also: one replicate is shown; some compounds called inactive have numbers as strong as hits
rRNA inh HTS OD600 = recorded beside rRNA inh HTS, whose call it bears; OD600 change, %; measured here: OD600 growth;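 optical density of the mix in the first replicate; 0 = DMSO median and -100 = no signal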
rRNA inh HTS RFP = further read-out of rRNA inh HTS, marked with its call; RFP signal change, %; measured here: RFP humanized mutant strains;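 first replicate; 0 = DMSO median and -100 = no signal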
* = called active by the depositor; & = joins results of further samples.

SMILES | AF4-AF9 inh | rRNA inh HTS | rRNA inh HTS OD600 | rRNA inh HTS RFP
Cc1cccc(-c2ccc([C@@H]3[C@H](CO)N4CCCCN(S(=O)(=O)c5cccs5)C[C@@H]34)cc2)c1 | -5.3 | -51 | -48 | 0.2
CO[C@H](CN(C)S(=O)(=O)c1ccc(F)cc1)[C@H](C)CN([C@@H](C)CO)S(=O)(=O)c1cccc(Cl)c1 | 1.1 | -1 | -18 | -0.4
C/C=C/c1cnc2c(c1)C(=O)N([C@H](C)CO)C[C@@H](C)[C@@H](CN(C)C(=O)c1cccc(F)c1)O2 | -3.3 | 4 | 9 | -1.6
O=C(C[C@@H]1CC[C@@H]2[C@H](COC[C@H](O)CN2S(=O)(=O)c2ccccc2)O1)NCCN1CCCCC1 | -1.9 | 0 | 5 | -1.1
CCS(=O)(=O)NCC[C@H]1CC[C@@H](NS(=O)(=O)c2ccccc2C)[C@H](CO)O1 | -2.3 | 1 | 0 | -0.4
COc1cccc(NC(=O)N2[C@@H]3CNC[C@H]2C3c2ccc(/C=C/c3ccccc3)cc2)c1 (some centres not stated) | 21&-3.5 | -55&-56 | -79&-79 | -5.8&-13
C[C@@H]1CCCCO[C@@H](CN(C)C(=O)Nc2ccc(F)cc2)[C@H](C)CN([C@@H](C)CO)C(=O)c2cc(NC(=O)NC3CCCCC3)ccc2O1 | -1.9 | 1 | 8 | 0.9
CCC(=O)N1CCC2(CC1)CN(S(C)(=O)=O)[C@@H](CO)c1[nH]c3cc(OC)ccc3c12 | 3.0 | 4 | 13 | -1.5
O=C(C[C@H]1CC[C@H]2[C@@H](COC[C@@H](O)CN2S(=O)(=O)c2ccc(F)cc2)O1)N[C@@H]1CCN(Cc2ccccc2)C1 | 0.0 | 0 | -7 | 1.4
CO[C@H]1CN(C)C(=O)c2ccc(NC(=O)Nc3c(C)noc3C)cc2OC[C@@H](C)NC[C@@H]1C | -1.2 | 3 | 3 | 0.1
C[C@H](CO)N1C[C@H](C)[C@H](CN(C)Cc2ccccn2)Oc2cc(-c3cncnc3)ccc2S1(=O)=O | -1.6 | 2 | 4 | -2.1
CC(C)C[C@H]1CN(CCCC[C@H]2CNC(=O)C(=O)N2CCc2ccc(O)cc2)C(=O)C(=O)N1CCc1ccc(O)cc1 | 5.1 | 14 | 9 | 7.5
C[C@H]1CN([C@@H](C)CO)C(=O)Cc2cc(NS(C)(=O)=O)ccc2O[C@H]1CN(C)Cc1ccc2c(c1)OCO2 | -3.8 | 3 | -2 | 0.9
COc1ccccc1S(=O)(=O)N[C@H]1CC[C@@H](CCn2cc(C3CC3)nn2)O[C@@H]1CO | 0.1 | -2 | -6 | -3.2
C[C@H]1CN([C@@H](C)CO)C(=O)c2cc(NS(=O)(=O)c3cccs3)ccc2O[C@@H]1CN(C)C(=O)Nc1ccc2c(c1)OCO2 | -0.6 | 1 | 0 | -1.4

Some values from the results shown.
C[C@H]1CN([C@@H](C)CO)C(=O)Cc2cc(NS(C)(=O)=O)ccc2O[C@H]1CN(C)Cc1ccc2c(c1)OCO2 – rRNA inh HTS RFP: 0.9
O=C(C[C@@H]1CC[C@@H]2[C@H](COC[C@H](O)CN2S(=O)(=O)c2ccccc2)O1)NCCN1CCCCC1 – rRNA inh HTS RFP: -1.1
O=C(C[C@H]1CC[C@H]2[C@@H](COC[C@@H](O)CN2S(=O)(=O)c2ccc(F)cc2)O1)N[C@@H]1CCN(Cc2ccccc2)C1 – rRNA inh HTS RFP: 1.4

Continuation.
SMILES | AF4-AF9 inh | rRNA inh HTS | rRNA inh HTS OD600 | rRNA inh HTS RFP
COc1cccc(S(=O)(=O)N(C)C[C@@H]2OCc3cnnn3CCCC(=O)N([C@@H](C)CO)C[C@@H]2C)c1 | -1.4&0.2&-1.8 | 6&1 | 6&-4 | -0.8&0.5
COc1ccc(C2=Nc3ccccc3N(C(=O)c3cc(Cl)cc(Cl)c3)C2C(=O)NCc2ccccc2)cc1 (configuration not stated) | 4.7 | 5 | 21 | 5.6
CC(=O)NC[C@H]1[C@@H](c2ccc(-c3ccccc3)cc2)[C@@H](CO)N1C(=O)C1CC1 | -6.8 | -1 | -4 | -2.5
COc1cccc(S(=O)(=O)N[C@H]2CC[C@@H](CC(=O)NC3CCC3)O[C@H]2CO)c1 | -0.9 | 1 | 5 | -0.1
COCC(=O)N1C[C@H](C)[C@H](OC)CN(C)C(=O)c2cc(NC(=O)Nc3cccc(F)c3)ccc2OC[C@@H]1C | 1.2&3.1 | -1&-1&8 | -3&4&7 | 2.0&-1.3&3.1
CN1c2ccc(C#Cc3cccnc3)cc2[C@@H]2[C@@H](CCN2C(=O)Cc2cccnc2)[C@H]1CO | 0.6 | -1 | 11 | 0.2
C[C@H](CO)N1C[C@H](C)[C@H](CN(C)CC2CC2)Oc2cc(-c3ccc(C#N)cc3)ccc2S1(=O)=O | 5.1 | -1 | -3 | -0.4
O=C(CC1CC1)N[C@@H]1CC[C@@H](CCNS(=O)(=O)c2ccc(Cl)cc2)O[C@@H]1CO | -0.7 | 0 | -2 | -0.2
Cc1noc(C)c1C(=O)N1CCC1(C)C(=O)NS(=O)(=O)c1cccc(F)c1 (configuration not stated) | -8.7 | 12 | 24 | 0.8
CC(=O)[C@@]1(O)Cc2c(O)c3c(c(O)c2[C@H](O[C@H]2C[C@H](N)[C@H](O)[C@H](C)O2)C1)C(=O)c1ccccc1C3=O | 25* | 73 | -81 | 51
CC(C)CC#Cc1ccc([C@@H]2[C@@H](CO)N3C(=O)CN(C(=O)NC4CCCCC4)C[C@@H]23)cc1 | 3.1 | -23 | -50 | 35
CCNC(=O)Nc1ccc2c(c1)C(=O)N(C)[C@@H]1CC[C@@H](CC(=O)Nc3ccccc3)O[C@H]1CO2 | -0.4 | -1 | 6 | -3.1
O=C(C[C@@H]1C[C@H]2c3cc(NS(=O)(=O)c4ccc(F)cc4)ccc3O[C@H]2[C@H](CO)O1)NCCN1CCCCC1 | 4.7 | 2 | -3 | 1.1
C[C@H]1CN([C@@H](C)CO)C(=O)c2cc(NC(=O)NC3CCCCC3)ccc2O[C@H]1CN(C)Cc1ccc(C(=O)O)cc1 | -1.8 | 3 | 8 | -2.2
Cc1ccc(S(=O)(=O)NCC[C@@H]2CC[C@H](NC(=O)c3cccnc3)[C@H](CO)O2)cc1 | -1.1 | 0 | -1 | -0.9
N#C[C@H]1[C@H](c2ccc(C3=CCCC3)cc2)[C@@H](CO)N1C(=O)c1cccc(F)c1 | -2.5 | -1 | -3 | 3.2
CCN(CC)CCOC(=O)C(c1ccccc1)C1CCCCC1 (configuration not stated) | 0.1 | -21 | -44 | 6.2
COc1cccc(-c2ccc3c(c2)N(Cc2cccc(F)c2)C(=O)C(C)S3)c1 (configuration not stated) | 0.5 | 8 | 22 | 0.9
C[C@H]1[C@@H]2C[C@@]3(O[C@H](c4ccc(C(F)(F)F)cc4)N=C3C[C@@H]1c1ccccc1)N(Cc1ccncc1)C2=O | -3.9 | 1 | -23 | 0.8
COc1ccc(S(=O)(=O)N(C)C[C@H]2Oc3ccc(NC(=O)c4ccncc4)cc3C(=O)N([C@@H](C)CO)C[C@@H]2C)cc1 | -2.8 | -5 | -2 | 0.7
COc1ccc(NC(=O)N(C)C[C@@H]2Oc3ccc(NS(=O)(=O)c4ccccc4)cc3C(=O)N([C@H](C)CO)C[C@H]2C)cc1 | -3.0 | 1 | 13 | -3.6
Cc1ccc(S(=O)(=O)Nc2cccc3c2O[C@@H](CN(C)Cc2ccc(C(=O)Nc4ccccc4N)cc2)[C@H](C)CN([C@H](C)CO)C3=O)cc1 | -0.1 | -2 | -2 | -0.6
COc1cccc(C#Cc2ccc3c(c2)[C@H]2[C@H](CCN2C(=O)CC2CC2)[C@@H](CO)N3)c1 | 9.7 | 3 | 15 | 4.5
C[C@H](CO)N1C[C@H](C)[C@H](CN(C)Cc2cccnc2)OCc2ccccc2-c2ccccc2C1=O | -2.4 | 0 | 2 | 2.3
O=C(NCC[C@@H]1CC[C@@H](NC(=O)c2ccc3c(c2)OCO3)[C@@H](CO)O1)Nc1cc(F)ccc1F | 3.9 | -5 | -6 | 0.4
CC(C)NC(=O)N(C)C[C@H]1Oc2ncc(C#CC3(O)CCCC3)cc2C(=O)N([C@H](C)CO)C[C@H]1C | -2.3 | 6 | 17 | -0.2
CCC(=O)N1[C@H](CO)[C@H](c2ccccc2-c2ccccc2)[C@@H]1C#N | -1.7 | -1 | 2 | 0.4
COc1ccc(NC(=O)N(C)C[C@H]2OCCCC[C@@H](C)Oc3ccc(NC(=O)Nc4ccc5c(c4)OCO5)cc3C(=O)N([C@H](C)CO)C[C@@H]2C)cc1 | -0.4 | 1 | 3 | 0.2
C[C@@H]1CN([C@H](C)CO)C(=O)c2cccc(NC(=O)C3CC3)c2O[C@@H]1CN(C)S(=O)(=O)c1ccccc1 | -6.8 | 2 | 4 | -0.8
C[C@@H]1CN([C@H](C)CO)C(=O)c2cc(NC(=O)CCN3CCOCC3)ccc2O[C@H]1CN(C)C(=O)Nc1ccc(C(F)(F)F)cc1 | -7.7 | -7 | -12 | -2.6
C[C@H]1CN([C@@H](C)CO)C(=O)c2cc(NC(=O)C3CC3)ccc2O[C@H]1CN(C)CC1CC1 | -1.1 | 4 | 6 | -3.6
CN1[C@H](C(=O)NC2Cc3ccccc3C2)[C@@H](CO)[C@@H]2Cn3c(ccc(-c4ccncc4)c3=O)[C@@H]21 | -0.8 | -5 | 2 | -0.2
O=C(CN1CCOCC1)N[C@@H]1CC[C@@H](CCNC(=O)C2CCC2)O[C@H]1CO | -1.3 | 1 | 2 | -3.3
CC1=C(C(=O)N(C)C)CC(CC(=O)NCCN2CCOCC2)C(=O)N1Cc1ccc(F)cc1 (configuration not stated) | -1.1 | 0 | 13 | -4.5
COc1ccccc1S(=O)(=O)N1CC[C@@H]2[C@H]1c1cc(-c3ccc(F)cc3)ccc1N[C@@H]2CO | -1.5 | -1 | -7 | 8.1
O=C(O)Cn1cnc2c(NCc3ccccc3)ncnc21 | -1.7 | 11 | 17 | 1.2
Cn1cnc(S(=O)(=O)N[C@@H]2CC[C@H](CC(=O)Nc3ccccc3)O[C@@H]2CO)c1 | 2.1 | 4 | 4 | -1.8
O=C(C[C@H]1C=C[C@H](NC(=O)Nc2ccc(F)cc2)[C@@H](CO)O1)NCc1cccc(F)c1 | -3.4 | -1 | -2 | 0.7
C[C@H]1CN([C@@H](C)CO)S(=O)(=O)c2ccc(C#CCN(C)C)cc2O[C@H]1CN(C)Cc1ccncc1 | 2.8 | -3 | -19 | 0.1
Cc1ccc(S(=O)(=O)N(C)C[C@@H]2Oc3ccc(NS(=O)(=O)c4ccc(Cl)cc4)cc3C(=O)N([C@H](C)CO)C[C@@H]2C)cc1 | 0.6 | -2 | -2 | 0.2
C[C@@H]1CN([C@@H](C)CO)C(=O)c2cc(NC(=O)CCC(F)(F)F)ccc2O[C@@H]1CN(C)C(=O)Nc1ccc2c(c1)OCO2 | 0.2 | 0 | -5 | -1.2

Six entries out of the list, ordered by count of non-hydrogen atoms, descending.
SMILES | AF4-AF9 inh | rRNA inh HTS | rRNA inh HTS OD600 | rRNA inh HTS RFP
C[C@@H]1CCCCO[C@@H](CN(C)C(=O)Nc2ccc(F)cc2)[C@H](C)CN([C@@H](C)CO)C(=O)c2cc(NC(=O)NC3CCCCC3)ccc2O1 | -1.9 | 1 | 8 | 0.9
C[C@H]1CN([C@@H](C)CO)C(=O)Cc2cc(NS(C)(=O)=O)ccc2O[C@H]1CN(C)Cc1ccc2c(c1)OCO2 | -3.8 | 3 | -2 | 0.9
C[C@H](CO)N1C[C@H](C)[C@H](CN(C)Cc2ccccn2)Oc2cc(-c3cncnc3)ccc2S1(=O)=O | -1.6 | 2 | 4 | -2.1
CN1[C@H](C(=O)NC2Cc3ccccc3C2)[C@@H](CO)[C@@H]2Cn3c(ccc(-c4ccncc4)c3=O)[C@@H]21 | -0.8 | -5 | 2 | -0.2
COc1ccccc1S(=O)(=O)N[C@H]1CC[C@@H](CCn2cc(C3CC3)nn2)O[C@@H]1CO | 0.1 | -2 | -6 | -3.2
O=C(O)Cn1cnc2c(NCc3ccccc3)ncnc21 | -1.7 | 11 | 17 | 1.2

This is a subset; count on the stated rates, not on these rows.
